Compound activity deposited in PubChem BioAssay by National Center for Advancing Translational Sciences (NCATS).
Menin-MLL FL inh – qHTS Assay for Inhibitors Targeting the Menin-MLL Interaction in MLL Related Leukemias: Competition With Fluorescein Labeled MLL-derived Peptide. Fluorescence polarization, fluorescein-MLL peptide displacement from menin. FP activity change, % at 61.4 µM. 290,000 tested, under 10 active. AID 1766, 2009; inconclusive = falling polarisation curve, or a change in total fluorescence; inactive = total fluorescence flat and polarisation flat or rising; no compound was filed as active; the % refers to the polarisation; negative = inhibition;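 further: % of control where 0% means no effect; inhibitors lower the polarisation; unlabelled MLL peptide was the positive control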
ClpP mod – qHTS Assay for Activators of ClpP | ATP-dependent Clp protease proteolytic subunit (Bacillus subtilis (strain 168)), P80244 | Potency, µM (top dose mostly 57.5 µM), without a hit: at the highest dose activity change, negative = active | 1.9% of 340,000 active | purified B. subtilis ClpP, FRET peptide cleavage, 20 min | AID 651965, 2013; active = well fitted falling curve with a large enough effect; inconclusive = small, poorly fitted or top-dose-only effect; inactive = no such curve, though single readings can be large or run the other way; further: potency means the concentration at half of the fitted maximal effect; the source files actives as falling curves though it sought activators and does not explain the sign; nearly all actives have a fitted effect of over 65% in size; many hits overshoot -100%
Target sequence (P80244 whole entry, looked up): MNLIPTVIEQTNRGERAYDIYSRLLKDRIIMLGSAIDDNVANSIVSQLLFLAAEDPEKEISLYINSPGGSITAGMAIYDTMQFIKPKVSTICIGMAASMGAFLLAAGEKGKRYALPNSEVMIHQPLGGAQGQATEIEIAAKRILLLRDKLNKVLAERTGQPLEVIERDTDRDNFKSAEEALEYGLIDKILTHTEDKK
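Purified B. subtilis ClpP, 10 microg/mL final in Tris/HCl pH8 with KCl, BSA, glycerol and Tween-20, cleaved an Abz/nitrotyrosine-quenched decapeptide. Fluorescence (ex 320, em 430) was read at 0 and 20 min at room temperature. Delta was normalized to 5.8 microM ADEP and DMSO/no-enzyme controls.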
D2 agonist – Beta-Arrestin HTS for Positive Allosteric Modulators of the Human D2 Dopamine Receptor: Agonists. DiscoveRx PathHunter D2 beta-arrestin, luminescence, 90 min; 100% = 57 uM dopamine signal. 0.084% of 360,000 active. AID 624465, 2012. activation, % (no concentration beside the values); in the data active = activation above about 40%; inconclusive = about 15% to 40%; inactive = below about 15%; further: compound concentration not given in the record; the text of the record calls up to 30% inactive
Target sequence (P14416 whole entry, looked up): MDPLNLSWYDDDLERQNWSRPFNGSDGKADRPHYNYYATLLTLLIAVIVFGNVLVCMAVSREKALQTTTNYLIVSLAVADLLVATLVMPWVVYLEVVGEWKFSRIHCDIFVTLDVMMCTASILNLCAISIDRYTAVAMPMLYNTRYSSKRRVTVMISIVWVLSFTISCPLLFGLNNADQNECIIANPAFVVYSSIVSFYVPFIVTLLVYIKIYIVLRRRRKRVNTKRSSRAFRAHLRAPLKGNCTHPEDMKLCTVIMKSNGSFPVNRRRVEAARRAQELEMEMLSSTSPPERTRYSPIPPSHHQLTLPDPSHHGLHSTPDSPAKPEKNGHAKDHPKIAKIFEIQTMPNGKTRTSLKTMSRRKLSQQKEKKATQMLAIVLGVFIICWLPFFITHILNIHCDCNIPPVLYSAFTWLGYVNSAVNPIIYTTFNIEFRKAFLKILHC
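Agonist mode: compounds alone added to overnight-plated D2 PathHunter cells for 90 min at 37 C, with 57 uM final dopamine (EC100) defining full response. Beta-arrestin recruitment detected by chemiluminescent reagent, read after 1 h at ambient temperature.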
gsp ag – qHTS for Agonist of gsp, the Etiologic Mutation Responsible for Fibrous Dysplasia/McCune-Albright Syndrome: qHTS | gsp mutant cells, cAMP HTRF, 30 min; control for the full effect not named in the record | Potency, µM (doses to about 76.9 µM), for inactives: top-dose activation (cAMP increase), most hits filed as activators | 0.13% of 340,000 active | AID 624287, 2012; active = well fitted activation curve with a large enough effect; inconclusive = small, poorly fitted or top-dose-only effect, or another doubt; inactive = no such curve, though single readings can be large or run the other way; cell line not stated here;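 further: phosphodiesterase inhibitor Ro 20-1724 added with compounds to block cAMP breakdown; potency means the concentration at half of the fitted maximal effect; nearly all actives have a fitted effect of over 60% in size; about a fifth of the inactives were tested at one dose only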
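Cells stably selected in G418 were plated at 2000/well, grown 16-24 hr, then given compounds in DMSO with the PDE inhibitor […] (300 uM solution added) for 30 min at 37C; cAMP was read by HTRF.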
PINK1 modulator – A Quantitative High throughput Screen to Identify Chemical Modulators of PINK1 Expression; PINK1 immunofluorescence, high-content cytometry, 24 h; Potency, µM (doses to about 76.6 µM), for the others: top-dose activation (PINK1 increase), hits mostly activators; 0.2% of 410,000 active; AID 624263, 2012; active = well fitted activation curve with a large enough effect; inconclusive = small, poorly fitted or top-dose-only effect; inactive = flat fitted curve, though single readings scatter; cell line not stated here;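 further: potency means the concentration at half of the fitted maximal effect; % of control where 0% means no effect; nearly all actives have a fitted effect of over 65% in size; a mitochondrial uncoupler was the plate control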
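Fluorescence from anti-PINK1 antibody, together with nuclear and cell stains, was scanned on a laser-scanning cytometer. Before staining, stable-line cells were incubated 24 hours with compounds at 5 concentrations; primary antibody 12 h at 10 degrees C.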
Sfp PPTase inh – qHTS Assay for Inhibitors of Bacillus subtilis Sfp phosphopantetheinyl transferase (PPTase); 4'-phosphopantetheinyl transferase ffp (Bacillus subtilis), Q9F4F7; Biochemical Sfp PPTase activity, qHTS; Potency, µM, for inactives: max response, negative = inhibition, actives largely listed as inhibitors; 3.5% of 310,000 active; AID 1490, 2009; active means well fitted inhibition curve with a large enough effect; inconclusive means small, poorly fitted or top-dose-only effect, or another doubt; inactive means no such curve, though single readings can be large or run the other way;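 further: the enzyme is Sfp with the accession as filed and its product quenches rhodamine fluorescence; potency means the concentration at half of the fitted maximal effect; 0% = enzyme reaction without inhibitor and -100% = no enzyme wells; top concentration of the series not given in the record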
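Step 1, compound plus 15 nM Sfp-PPTase, 15 min, room temperature. Step 2, add rhodamine-CoA (5 uM) and BHQ-2-YbbR (12.5 uM). Step 3, read 525/598 nm fluorescence at 0 and 30 min.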
gsp antag – qHTS for Antagonists of gsp, the Etiologic Mutation Responsible for Fibrous Dysplasia/McCune-Albright Syndrome: qHTS. gsp-mutant cells, cAMP HTRF, 30 min; control for the full effect not named in the record. Potency, µM (highest dose often 76.9 µM), for inactives: top-dose activity change, negative = inhibition, usual class: inhibitors. 0.4% of 340,000 active; active = falling curve of any shape with a large fitted effect; inconclusive = falling curve, mostly with a smaller effect; inactive = flat or rising curve; cell line not stated here;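 further: intracellular cAMP measured with PDE inhibitor Ro 20-1724 present during compound exposure; potency means the concentration at half of the fitted maximal effect; on the % scale 0 is the no-effect control and ±100 the full control effect; nearly all actives have a fitted effect of over 65% in size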
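HTRF cAMP measurement after 30 min RT detection following 30 min, 37C compound treatment alongside […] (added as 300 uM solution) in G418-selected cells seeded at 2000/well and grown 16–24 h.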
The depositor's hits bear a star; [ ] = dose if it differs, or a comment.

CCOc1ccc(NC(=O)[C@@H]2CCCN2C(=O)c2cccs2)cc1S(=O)(=O)N1CCCCC1 was read as ClpP mod -1.5%, D2 agonist -0.7, gsp ag -8%, PINK1 modulator -0.4% and gsp antag -9%.
Screening O=C(OCC(=O)N1CCN(C(=O)c2ccco2)CC1)c1cc(-c2ccco2)nc2ccccc12 returned Menin-MLL FL inh 0.7, ClpP mod -23%, D2 agonist 2.8, gsp ag -25%, PINK1 modulator -3.6%[38.3 µM], Sfp PPTase inh -103% and gsp antag inconclusive.
Screening Cc1ccc2c(nc3s/c(=C\c4ccc(-c5ccccc5C(=O)O)o4)c(=O)n32)c1C returned Menin-MLL FL inh inconclusive, ClpP mod -1.8%, D2 agonist -4.3, gsp ag 16%, PINK1 modulator 1.5%, Sfp PPTase inh -10% and gsp antag 1%.
For COc1cc(NS(=O)(=O)c2ccc(NC(=O)CN3C(=O)c4ccccc4C3=O)cc2)nc(OC)n1 the results were Menin-MLL FL inh 1.3, ClpP mod -5.6%, D2 agonist -3.7, gsp ag 5%, PINK1 modulator -4.0%, Sfp PPTase inh 13% and gsp antag -18%.
For COc1ccc(-n2nc3c(N)n[nH]c3cc2=O)cc1 the results were Menin-MLL FL inh -29, D2 agonist 3.7, gsp ag -3%, PINK1 modulator -2.2%, Sfp PPTase inh -11% and gsp antag -9%.
COc1ccc(CC(=O)NC2CCCc3ccccc32)cc1 (stereo not drawn) was read as Menin-MLL FL inh -2.8, D2 agonist -3.3, gsp ag -6%[15.4 µM], PINK1 modulator 2.3%, Sfp PPTase inh 11% and gsp antag 6%.
COc1ccc(/C=C(/NC(=O)c2ccccc2)C(=O)NCc2ccco2)cc1 was read as D2 agonist -3.2, gsp ag inconclusive, PINK1 modulator 5.8%, Sfp PPTase inh 15% and gsp antag 11%.
`Cc1ccn2cc(-c3cccc(NC(=O)CCC(=O)O)c3)nc2c1` gave Menin-MLL FL inh -0.7, ClpP mod 3.7%, D2 agonist -2.6, gsp ag 8%, PINK1 modulator 2.0%, Sfp PPTase inh 4% and gsp antag 2%.
Cc1cccn2cc(COc3ccc(-c4ccccc4)cc3)nc12 was read as Menin-MLL FL inh 4.6, D2 agonist -0.1, gsp ag -11%[15.4 µM], PINK1 modulator -0.5%, Sfp PPTase inh 35µM* and gsp antag -14%.
Screening CCOC(=O)C1(Cc2ccc(OC)cc2)CCN(C(=O)c2cccc3nccnc23)CC1 returned Menin-MLL FL inh -0.1, ClpP mod -3.0%, D2 agonist -3.5, gsp ag -32%, PINK1 modulator -1.2%, Sfp PPTase inh -7% and gsp antag 1%.
Screening CC1CN(C(=S)Nc2ccccc2)CC(C)O1 (stereo not drawn) returned Menin-MLL FL inh 3.5, ClpP mod -0.9%, D2 agonist -1.5, gsp ag -3%, PINK1 modulator 2.3%, Sfp PPTase inh -2% and gsp antag 6%.
Screening Cc1ccc(CCNS(=O)(=O)c2cc3c(cc2C)NC(=O)CO3)cc1 returned Menin-MLL FL inh -5.4, ClpP mod -1.3%, D2 agonist -1.5, gsp ag -18%, PINK1 modulator -1.5%, Sfp PPTase inh 6% and gsp antag -7%.
For Cc1ccc(NC(=O)CSc2nc(N)cc(=O)[nH]2)cc1S(=O)(=O)N1CCOCC1 the results were Menin-MLL FL inh 2.7, D2 agonist 0.4, gsp ag 16%[15.4 µM], PINK1 modulator 2.9%, Sfp PPTase inh 19% and gsp antag 6%.
O=C(/C=C/[C@H]1O[C@@H](n2cnc3c(NC(=O)c4ccccc4)ncnc32)[C@H](O)[C@@H]1O)NCc1cccs1 was read as ClpP mod -0.9%, D2 agonist -1.2 and PINK1 modulator 0.8%.
CCOC(=O)N1CCN(C(=O)CCN2C(=O)COc3ccccc32)CC1 was read as Menin-MLL FL inh 2.9, ClpP mod -1.8%, D2 agonist -2.7, gsp ag -5%, PINK1 modulator 2.6%[38.3 µM], Sfp PPTase inh 9% and gsp antag 2%.
Screening O=C(O)c1ccc(CNC(=O)c2ccc3c(c2)OCCO3)cc1 returned Menin-MLL FL inh 6.6, ClpP mod -0.5%, D2 agonist -4.8, gsp ag 21%[15.4 µM], PINK1 modulator 1.2%, Sfp PPTase inh 11% and gsp antag 6%.
Screening COc1ccc([C@H]2CC(=O)c3c(O)cc(O)cc3O2)cc1O returned Menin-MLL FL inh 1.1, D2 agonist -0.4, gsp ag -18%, PINK1 modulator 2.0%, Sfp PPTase inh 14% and gsp antag -23%.
For Nc1ccccc1SC(CC(=O)c1ccccc1)c1ccc([N+](=O)[O-])cc1 (stereo not drawn) the results were ClpP mod -0.4%, D2 agonist -7.9, gsp ag 21% and PINK1 modulator -2.0%.
N#Cc1nc(-c2ccco2)oc1NCCCn1ccnc1 was read as Menin-MLL FL inh 4.4, ClpP mod inconclusive, D2 agonist -3.0, gsp ag 6%, PINK1 modulator 0.0%, Sfp PPTase inh 1% and gsp antag 13%.
Screening S=c1nn[nH]n1C12CC3CC(CC(C3)C1)C2 returned Menin-MLL FL inh 1.6, ClpP mod -1.8%, D2 agonist -2.6, gsp ag -5%, PINK1 modulator inconclusive, Sfp PPTase inh inconclusive and gsp antag -14%.
Screening CN(Cc1ccco1)c1cc(-c2ccccc2C(F)(F)F)ncn1 returned Menin-MLL FL inh -9.2, PINK1 modulator 6.0% and Sfp PPTase inh -9%.
`CCN(CC)C(=O)Cn1cc(S(=O)(=O)CC(=O)N2CC(C)OC(C)C2)c2ccccc21` (stereo not drawn) gave ClpP mod 1.0%, D2 agonist -1.0, gsp ag -5%[15.4 µM], PINK1 modulator 0.5% and gsp antag 9%.
Screening NC(=O)C1CCN(Cc2nc(-c3ccccc3)no2)CC1 returned Menin-MLL FL inh -1.6, ClpP mod -0.9%, D2 agonist -0.5, gsp ag -35%[inhibitor], PINK1 modulator 0.7%[38.3 µM], Sfp PPTase inh 15% and gsp antag 0%.
Cc1cccc(-c2n[nH]nc2C2=CC(=O)CC(C)(C)C2)c1 was read as ClpP mod 0.2%, D2 agonist -0.5, gsp ag -36%[inhibitor] and PINK1 modulator -0.7%.
For O=C(Cc1n[nH]c(=O)c2ccccc12)Nc1cccc(S(=O)(=O)N2CCCCCC2)c1 the results were ClpP mod -0.5%, D2 agonist -4.0, gsp ag 6%, PINK1 modulator 0.9% and gsp antag inconclusive.
`O=C1N/C(=N/O)S/C1=C\c1ccccc1-n1cccn1` gave Menin-MLL FL inh -1.9, D2 agonist -5.3, gsp ag -9%[15.4 µM], PINK1 modulator -0.6%, Sfp PPTase inh -3% and gsp antag -3%.
`CCCCC(O)(c1ccc(OC)cc1)C(CN1CCOCC1)c1ccccc1` (stereo not drawn) gave Menin-MLL FL inh -3.7, D2 agonist 2.3, gsp ag inconclusive, PINK1 modulator 15%, Sfp PPTase inh 0% and gsp antag -5%.
`CCN(CC)CCCN=Cc1c(O)n(-c2c(C)cccc2C)c(=O)c2ccccc12` gave Menin-MLL FL inh -1.4, ClpP mod -8.4%, D2 agonist -3.4, gsp ag 19%, PINK1 modulator -0.3%, Sfp PPTase inh 15% and gsp antag 12%.
Screening O=C(Nc1nnc(SCc2c(Cl)cccc2Cl)s1)C1CC(=O)N(c2ccc3c(c2)OCCO3)C1 (stereo not drawn) returned Menin-MLL FL inh 9.3, ClpP mod 3.4%, D2 agonist 2.5, gsp ag inconclusive, PINK1 modulator 0.7%, Sfp PPTase inh -10% and gsp antag -7%.
C=CCn1c(SCC(=O)Nc2ccc3c(c2)OCO3)nnc1-c1ccccc1 was read as Menin-MLL FL inh -0.9, ClpP mod -2.6%, D2 agonist 5.8, gsp ag -30%[inhibitor], PINK1 modulator -0.1%, Sfp PPTase inh -1% and gsp antag -2%.
`O=C(/C=C/c1ccc(-c2ccccc2[N+](=O)[O-])o1)c1ccc(Br)cc1` gave Menin-MLL FL inh 1.1, ClpP mod 2.3%, D2 agonist -2.5, gsp ag -7%, PINK1 modulator 11%[38.3 µM], Sfp PPTase inh -1% and gsp antag -6%.
For Cc1c(CCOC(=O)C23CC4CC(CC(C)(C4)C2)C3)sc[n+]1Cc1ccccc1 the results were Menin-MLL FL inh 0.6, ClpP mod -2.6%, D2 agonist -5.1, gsp ag 23%, PINK1 modulator 18%, Sfp PPTase inh -6% and gsp antag 11%.
Screening CC1(C(=O)Nc2ccc3c(c2)OCO3)Cc2c(-c3ccc4c(c3)OCO4)ccnc2O1 (stereo not drawn) returned ClpP mod 4.5%, D2 agonist 0.4 and PINK1 modulator 2.4%.
Screening CC(C)(C)OC(=O)Nc1ccc([C@H](NC(=O)OC(C)(C)C)C(=O)OC(C)(C)C)cc1 returned ClpP mod 1.8%, D2 agonist -6.3, gsp ag -65%[inhibitor], PINK1 modulator 0.7% and gsp antag 2%.
CCOC(=O)c1c(NC(=O)CSc2nnnn2-c2ccc(OC)cc2)sc(C)c1C was read as Menin-MLL FL inh -0.1, ClpP mod -0.6%, D2 agonist 1.2, gsp ag -27%, PINK1 modulator inconclusive, Sfp PPTase inh 5µM* and gsp antag -16%.
For Cc1noc(C)c1C(=O)OCC(=O)Nc1cc(Cl)ccc1Oc1ccccc1 the results were Menin-MLL FL inh -2.2, ClpP mod 1.2%, D2 agonist -2.4, gsp ag 2%, PINK1 modulator 1.4%, Sfp PPTase inh 2% and gsp antag -18%.
`O=C(NCCc1ccccn1)c1cncc(Br)c1` gave Menin-MLL FL inh -0.4, D2 agonist 4.8, gsp ag -29%[15.4 µM], PINK1 modulator -0.1%, Sfp PPTase inh 18% and gsp antag 11%.

Compounds as they come, and some 5.1% of all compounds hit somewhere here.
